Compound activity as filed in PubChem BioAssay.
Six1-Eya2 blk – qHTS Assay for Inhibitors of the Six1/Eya2 Interaction | Homeobox protein SIX1 (Homo sapiens) + Protein phosphatase EYA2 (Homo sapiens), … | AlphaScreen GST-Six1/His-Eya2 binding, biochemical; stronger effect = lower value; control for the full effect not named in the record | activity change, % (no concentration beside the values) | actives 0.56% (n = 360,000) | AID 651725, 2012; in the data active = activity change below about -65%; inconclusive = about -30% to -65%; inactive = above about -30%; also: % is scaled to controls: 0 for no effect and ±100 for the full control effect; compound concentration not given in the record
Target sequence (O00167 whole entry, looked up): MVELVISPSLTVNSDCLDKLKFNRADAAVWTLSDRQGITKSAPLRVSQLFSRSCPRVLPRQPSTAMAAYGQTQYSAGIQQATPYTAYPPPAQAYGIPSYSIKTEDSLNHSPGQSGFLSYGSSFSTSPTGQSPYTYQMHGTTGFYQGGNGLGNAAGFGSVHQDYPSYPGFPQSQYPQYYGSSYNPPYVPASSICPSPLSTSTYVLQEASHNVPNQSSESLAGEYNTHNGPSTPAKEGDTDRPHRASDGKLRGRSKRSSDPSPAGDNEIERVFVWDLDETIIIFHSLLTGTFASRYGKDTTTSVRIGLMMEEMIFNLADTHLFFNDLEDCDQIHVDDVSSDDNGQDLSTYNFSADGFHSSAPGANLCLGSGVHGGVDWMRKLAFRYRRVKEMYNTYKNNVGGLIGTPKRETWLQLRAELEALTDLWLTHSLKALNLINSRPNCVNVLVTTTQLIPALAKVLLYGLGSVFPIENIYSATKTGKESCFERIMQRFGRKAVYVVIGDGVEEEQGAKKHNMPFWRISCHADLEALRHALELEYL
Target sequence (Q15475 whole entry, looked up): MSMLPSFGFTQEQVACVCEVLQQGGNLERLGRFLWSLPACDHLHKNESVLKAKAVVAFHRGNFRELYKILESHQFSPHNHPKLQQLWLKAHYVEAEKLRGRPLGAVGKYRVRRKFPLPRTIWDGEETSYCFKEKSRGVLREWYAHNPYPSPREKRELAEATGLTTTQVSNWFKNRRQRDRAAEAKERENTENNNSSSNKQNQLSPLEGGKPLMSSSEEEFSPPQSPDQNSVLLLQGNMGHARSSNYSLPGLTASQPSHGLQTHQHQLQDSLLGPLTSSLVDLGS
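AlphaScreen with GST-Six1 and His-Eya2 (5X mix: 250 nM and 500 nM), glutathione donor and nickel acceptor beads; buffer 50 mM Tris pH 8.0, 300 mM NaCl, 1 mM TCEP; 1 h at 37 C in the dark.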
PINK1 expr mod – A Quantitative High throughput Screen to Identify Chemical Modulators of PINK1 Expression; PINK1 immunofluorescence, high-content cytometry, 24 h; Potency, µM (series often up to 76.6 µM), inactives show at the highest dose activation (PINK1 increase), usual class: activators; actives 0.2% (n = 410,000); active = well fitted activation curve with a large enough effect; inconclusive = small, poorly fitted or top-dose-only effect; inactive = flat fitted curve, though single readings scatter; cell line not stated here;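 also: potency is read from the fitted curve at half-maximal effect; % of control where 0% means no effect; nearly all actives have a fitted effect of over 65% in size; a mitochondrial uncoupler was the plate control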
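PINK1 protein level read as immunofluorescence by microplate cytometer in a fixed, stained stable cell line after 24 h exposure to five compound concentrations, with CCCP as control.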
TRPML1 inh – qHTS for Inhibitors of the Human Mucolipin Transient Receptor Potential 1 (TRPML1); TRPML1-inducible cells, Ca2+ dye fluorescence, FDSS; stronger effect = lower value; inhibition of EC80 agonist-evoked calcium signal; Mucolipin-1 (Homo sapiens), Q9GZU1; activity change, negative = inhibition, % (no concentration beside the values); actives 0.02% (n = 390,000); in the data active means activity change below about -50%; inconclusive means about -30% to -50%; inactive means above about -30%;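 also: stimulus is agonist 54-4 at its EC80 concentration; % is scaled to controls: 0 for no effect and ±100 for the full control effect; compound concentration not given in the record; the text of the record puts the active cut at -80%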
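Tet-induced TRPML1-DL cells loaded with Ca8 no-wash calcium dye were read kinetically on FDSS. Compound addition was followed by EC80 agonist 54-4 (4 uM final); inhibition was read over 110 s.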
D2 agonist – Beta-Arrestin HTS for Positive Allosteric Modulators of the Human D2 Dopamine Receptor: Agonists; DiscoveRx PathHunter D2 beta-arrestin, luminescence, 90 min; 100% = 57 uM dopamine signal; activation, % (no concentration beside the values); actives 0.084% (n = 360,000); in the data active = activation above about 40%; inconclusive = about 15% to 40%; inactive = below about 15%; also: compound concentration not given in the record; the text of the record calls up to 30% inactive
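DiscoveRx PathHunter D2 beta-arrestin cells (2,100/well) attached overnight, then compound-stimulated 90 min at 37 C in HBSS/10 mM HEPES/0.1% Tween-20 buffer; beta-galactosidase complementation read by luminescence after 1 h at ambient temperature. Dopamine 57 uM final (EC100) as control.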
CtBP-E1A blk – qHTS Assay for Inhibitors of the CtBP/E1A Interaction. actives 0.49% (n = 340,000). AlphaScreen GST-E1A/His-CtBP binding, 1536-well; stronger effect = lower value; control for the full effect not named in the record. activity change, % (test concentration not listed). CtBP / adenovirus E1A interaction (AlphaScreen); in the data active means activity change below about -65%; inconclusive means about -30% to -65%; inactive means above about -30%; also: % is scaled to controls: 0 for no effect and ±100 for the full control effect; compound concentration not given in the record
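GST-E1A and His-tagged CtBP (125 nM each as 5X stock) were preincubated with pin-transferred compound for 2 h at 37 °C in the dark, then glutathione donor and nickel acceptor beads were added for 1 h before AlphaScreen reading.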
TRPML1 ag – qHTS for Agonists of the Human Mucolipin Transient Receptor Potential 1 (TRPML1); Mucolipin-1 (Homo sapiens), Q9GZU1; TRPML1-expressing cells, Ca2+ dye fluorescence, FDSS; host cell line not named in the record; reference of the full effect not given here; activation, % (no concentration beside the values); actives 0.12% (n = 410,000); in the data active = activation above about 50%; inconclusive = about 30% to 50%; inactive = below about 30%; also: 0% is about no effect; the text of the record puts the active cut at 80%
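TRPML1-DL cells, Tet-induced overnight (~16 h, 37 degrees C), loaded 45-90 min at room temperature with Ca8 no-wash calcium dye plus quencher. FDSS fluorescence: 10 s baseline, compound pin-transfer, 110 s agonist read, then EC80 54-4 (4uM final) and 110 s antagonist read.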
An asterisk follows results filed as active; ? = inconclusive; nt = no result given; [ ] = remark or other dose.

SMILES	Six1-Eya2 blk	PINK1 expr mod	TRPML1 inh	D2 agonist	CtBP-E1A blk	TRPML1 ag
CNc1cc(-c2c(OC)cccc2OC)ncn1	-1.3	-0.5%	34.5	-4.3	-3.4	0.7
CCC(CC)C(=O)Nc1ccccc1-n1cccc1	-11.3	2.0%	1.7	-3.4	-0.7	0.6
N#Cc1cn(-c2ccccc2)nc1-c1ccc2c(c1)OCCO2	7.4	11.6%	-14.5	-0.6	7.9	3.8
Cc1cc(C)c(C(N)=O)c(Cl)n1	0.3	-0.1%	-0.2	1.8	2.9	2.8
COc1cc(C)ccc1OCCCCN1CC(C)OC(C)C1 (stereo unspecified)	-14.7	-0.5%	26.2	-2.1	-7.6	0.9
CCN(CC)S(=O)(=O)c1ccc2c(c1)c(=O)c(C(=O)N1CCOCC1)cn2C	1.4	3.6%[38.3 µM]	8.4	-3.0	-1.5	-0.7
O=C(Nc1cccc2c1[nH]c(=O)c1ccccc12)C(F)(F)F	1.0	4.1%	2.5	0.1	2.9	-0.4
COc1ccc(S(=O)(=O)N2CCOC2CNC(=O)C(=O)NCCCN2CCCC2=O)cc1OC (stereo unspecified)	43.7	-0.6%	0.9	-2.3	-9.2	-0.6
COc1ccccc1CNCCS(=O)(=O)NCc1ccccc1	5.6	0.1%	-13.9	-2.1	6.3	-1.6
CCN(CC)S(=O)(=O)c1ccc(C)c(NC(=O)CN2CCN(C)CC2)c1	13.7	-0.4%	0.5	-6.5	nt	-0.9
CN(c1ccccc1)S(=O)(=O)c1cccc(NC(=O)Nc2ccc(Cl)cc2C#N)c1	-7.1	4.0%	11.1	-3.9	4.4	5.4
CC1CCCCN1c1nc(-c2ccc(C(C)(C)C)cc2)nc2ccccc12 (stereo unspecified)	nt	3.4%	50.1	nt	nt	0.9
Cc1ccc(S(C)(=O)=NC(=O)NC(=O)c2c(F)cccc2Cl)cc1 (stereo unspecified)	-6.2	-0.5%	-6.5	-5.1	-0.4	-0.5
COc1ccc(Nc2nc(C(=O)NCc3ccco3)cs2)cc1	-19.8	1.9%	8.9	-3.4	nt	0.9
NC1=NC(=O)CC(C(=O)NCCc2ccccc2)S1 (stereo unspecified)	8.1	-1.6%	-2.6	2.2	-2.7	1.2
O=C(NC1CCCc2ccccc21)c1cccc(S(=O)(=O)N2CCN(c3ccccc3)CC2)c1 (stereo unspecified)	-7.5	-1.8%	8.2	-3.4	-2.8	2.4
O=C(Nc1cc(C(=O)N2CCCC2)ccc1N1CCCC1)c1ccccc1	-11.6	nt	64.2	3.5	-10.8	3.7
O=C(CNC(=O)c1ccccc1F)N/N=C/c1cc(Br)ccc1OCc1ccccc1	-8.4	0.1%	-10.5	0.5	nt	1.6
COc1ccc(S(=O)(=O)NC(Cc2ccccc2)C(=O)O)cc1 (stereo unspecified)	7.2	0.8%	9.6	2.5	nt	1.0
CN(Cc1nc2ccccc2c(=O)[nH]1)C(=O)C1CC(=O)N(c2cccc3ccccc23)C1 (stereo unspecified)	-5.6	2.1%	-5.1	-0.6	-3.8	-0.4
Cc1ccc2c(COC(=O)c3ccccc3OC(F)F)cc(=O)oc2c1	-0.4	10.0%	-3.0	0.9	11.0	0.9
Cc1onc(-c2ccccc2)c1C(=O)Nc1sc2c(c1C#N)CCC(C)C2 (stereo unspecified)	-5.7	2.9%[38.3 µM]	3.4	1.2	4.6	0.6
CCCCc1nn2c(=O)cc(COC(=O)CNC(=O)c3ccccc3C)nc2s1	nt	2.2%	-5.5	nt	nt	0.3
CC(C)(C)NC(=O)C(OC(=O)c1cccs1)c1ccccc1 (stereo unspecified)	1.1	1.8%	1.6	-3.1	nt	0.4
COCCN(C(=O)CNC(=O)c1ccco1)C(C(=O)NC1CCCC1)c1ccc(F)cc1 (stereo unspecified)	0.7	3.4%	6.8	0.0	-16.8	0.4
OC(COCc1ccccc1)CN1CCCC1 (stereo unspecified)	1.7	3.2%[38.3 µM]	22.4	0.9	4.3	3.6
COc1ccc(OC)c(CC(NC(C)=O)C(=O)NC2CCN(c3c(Cc4ccccc4)c(C)nc4ncnn34)CC2)c1 (stereo unspecified)	0.8	2.0%	-4.0	5.5	-6.1	0.2
COc1ccc(-c2noc(-c3ccccc3NC(=O)c3cc(OC)c(OC)c(OC)c3)n2)cc1	nt	0.7%	17.7	nt	nt	-0.7
CCOC(=O)C[N+](C)(C)CCOC1CC2CCC1(C)C2(C)C (stereo unspecified)	-2.9	1.2%	-11.7	-4.7	-1.3	-0.2
N#CC(c1nc2ccccc2nc1OCCO)S(=O)(=O)c1ccccc1 (stereo unspecified)	1.0	3.2%	nt	1.5	7.9	nt
CCc1nc2ccc(C(=O)Nc3ccc(NC(C)=O)cc3)cn2c1N(C)CCC(C)C	-5.3	0.1%	nt	5.5	-6.8	-0.6
CC(OC(=O)CCc1nc2ccccc2c(=O)[nH]1)C(=O)Nc1cccc(C(F)(F)F)c1 (stereo unspecified)	11.2	2.2%	4.4	0.2	1.8	-1.1
C[C@H]1CN([C@@H](C)CO)S(=O)(=O)c2ccc(Br)cc2O[C@H]1CN(C)C(=O)CN(C)C	14.7	-0.5%	nt	-4.0	-18.8	0.7
CCOc1cc(OCC)cc(C(=O)N2CCC[C@H]2C(=O)N2CCC[C@H]2C(=O)N[C@@H](C)c2ccccc2)c1	14.8	-0.8%	nt	nt	3.7	-0.5
CCOc1nc(N(C)C)nc(-n2nnc(C(C)=O)c2C)n1	7.7	-1.7%	-11.2	-3.1	-1.9	-0.7
COC(=O)CCCC(=O)NC1CCCc2c1cnn2-c1ccc(F)cc1F (stereo unspecified)	2.3	2.6%	17.9	-2.9	10.6	0.0

4 entries from above, field by field.
OC(COCc1ccccc1)CN1CCCC1 (stereo unspecified)
  Six1-Eya2 blk: 1.7 | PINK1 expr mod: 3.2%[38.3 µM] | TRPML1 inh: 22.4 | D2 agonist: 0.9 | CtBP-E1A blk: 4.3 | TRPML1 ag: 3.6

COc1ccc(OC)c(CC(NC(C)=O)C(=O)NC2CCN(c3c(Cc4ccccc4)c(C)nc4ncnn34)CC2)c1 (stereo unspecified)
  Six1-Eya2 blk: 0.8 | PINK1 expr mod: 2.0% | TRPML1 inh: -4.0 | D2 agonist: 5.5 | CtBP-E1A blk: -6.1 | TRPML1 ag: 0.2

COc1ccc(-c2noc(-c3ccccc3NC(=O)c3cc(OC)c(OC)c(OC)c3)n2)cc1
  Six1-Eya2 blk: nt | PINK1 expr mod: 0.7% | TRPML1 inh: 17.7 | D2 agonist: nt | CtBP-E1A blk: nt | TRPML1 ag: -0.7

CCOC(=O)C[N+](C)(C)CCOC1CC2CCC1(C)C2(C)C (stereo unspecified)
  Six1-Eya2 blk: -2.9 | PINK1 expr mod: 1.2% | TRPML1 inh: -11.7 | D2 agonist: -4.7 | CtBP-E1A blk: -1.3 | TRPML1 ag: -0.2

The list continues.
SMILES	Six1-Eya2 blk	PINK1 expr mod	TRPML1 inh	D2 agonist	CtBP-E1A blk	TRPML1 ag
O=C(CN1CCCN(Cc2ccc(F)cc2Cl)C1=O)NCc1ccccc1	1.7	-1.1%	16.2	-4.6	-2.1	-0.7
COc1cccc(C(=O)NCC(=O)OCc2cc(=O)n3nc(C)sc3n2)c1	nt	-0.4%	-14.6	nt	nt	0.7
O=C(Cc1ccc(NC(=O)C2CCCN(C(=O)C3CCC3)C2)cc1)Nc1cccc(C(=O)N2CCCC2)c1 (stereo unspecified)	0.1	-0.1%	20.9	2.1	-0.9	-0.5
O=C1CCCC2=C1C(c1ccc(O)c(O)c1)Nc1ccc3ncccc3c12 (stereo unspecified)	-29.7	1.5%	-7.7	3.9	-20.3	-0.5
CCN1C(=O)CCN(C2CCCC2)c2nc(Nc3ccc(C(=O)NC4CCN(C)CC4)cc3OC)ncc21	-1.4	14.3%	-1.9	-1.4	-22.4	1.3
CCOC(=O)c1cnn(Cc2ccccc2Cl)c1N	3.7	-4.2%[38.3 µM]	-3.9	1.6	4.2	-0.3
COc1cc(C(=O)N(Cc2ccccn2)CC2CCCO2)cc(OC)c1OC (stereo unspecified)	-7.3	-1.8%[38.3 µM]	-8.5	-3.0	-10.9	0.9
Cc1cccc(CNC(=O)c2cnc3sc(N4CCCCCC4)nn3c2=O)c1	nt	-0.6%	-11.4	nt	nt	2.2
Cc1ccc2c(Cl)c(Cc3ccccc3)c(=S)[nH]c2n1	-27.5	1.6%	33.6	1.6	-28.3	2.3
O=C(NCCSc1ccccc1)c1ccco1	6.8	-0.4%	21.8	-1.4	-0.9	-0.5
CC12CCC(C(=O)NCC3CCCO3)(OC1=O)C2(C)C (stereo unspecified)	12.3	2.1%	6.1	-1.0	-4.2	-0.3
CC1CCCCC1NC(=O)CSc1nnc(N)s1 (stereo unspecified)	3.1	0.3%	19.8	1.1	7.2	-0.3
Cc1c(NC(=O)Nc2ccc(Cl)c(Cl)c2)sc(=S)n1C	-13.7	?	38.2	-3.8	-7.2	0.2
Cc1cc(C)cc(NC(=O)CSc2nc3nc(C)cc(C)c3c(=O)[nH]2)c1	-5.2	9.8%	1.3	0.9	3.6	2.4
CC1(C(=O)NCc2ccc(C(F)(F)F)cc2)CCN1C1Cc2ccccc2C1 (stereo unspecified)	0.8	6.8%	nt	1.3	8.4	-0.9
O=C(O)c1ccccc1NC(=S)NC(=O)c1sc2ccccc2c1Cl	-2.8	-2.0%	-5.8	1.7	nt	1.5
CCOc1ccc(NC(=O)N(CCCN2CCOCC2)Cc2cccnc2)cc1	-7.4	-0.4%	-0.5	-4.6	5.3	-0.7
O=C(NCCN1CCN(c2ccccc2F)CC1)C1CC(=O)N(C2CCCC2)C1 (stereo unspecified)	2.9	nt	-3.3	6.7	8.0	-0.1
Cc1c(NC(=S)NC(=O)c2ccc(Cl)cc2)c(=O)n(-c2ccccc2)n1C	12.6	-1.7%	0.7	-2.1	1.2	-0.2
Cc1cc(N2CCCCC2)nc(SCc2ccc(C#N)cc2)n1	4.9	1.6%	-17.3	-4.4	3.0	0.8
CCOc1ccc(OCCCC(=O)NCCc2ccc(OC)cc2)cc1	1.6	-0.3%	4.0	-2.7	-1.3	1.5
COc1ccc(OCc2cc(C(=O)NCc3cccc(C)n3)no2)c(Cl)c1	-0.6	1.0%	-14.8	-6.4	-10.3	0.1
CCCc1cc(=O)[nH]c2nnc(SCC(=O)Nc3cc(C)on3)n12	5.2	0.1%	-3.1	-3.4	2.4	1.5
Cc1cccc(NC(=S)NNC(=O)c2csc(C(C)C)c2)c1	-2.3	-2.5%[38.3 µM]	-6.4	-5.2	-1.8	-0.2
Cc1cc(C)c(S(=O)(=O)N2CCN(c3ccc([N+](=O)[O-])c(NCc4ccco4)c3)CC2)c(C)c1	-8.6	1.9%[38.3 µM]	8.1	-0.4	14.6	0.0
NC(=S)NNC(=O)c1ccccc1	1.4	0.1%[38.3 µM]	4.1	0.9	5.2	0.6
